Measles CPE = protection of cells from measles virus; actives 1.5% (n = 140,000); protection (pct of control), % at 4 µM; Measles virus-infected cells, CPE protection, absorbance; in the data active means protection mostly above about 24%, no sharp cut-off; inactive means mostly below about 26%; further: some compounds called inactive have numbers as strong as hits
MRP-1 activ = activates MRP-1; H69AR cells + doxorubicin, viability rescue, CellTiter-Glo; viability increase, % at 10 µM; actives 0.61% (n = 140,000);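 active means viability gain under doxorubicin at or above a set limit, the compound median plus 3 SD, cut at about 4.7% in these data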;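 further: MRP-1 overexpressing cells given doxorubicin 25 µM after compound pretreatment; 18-22 h compound pretreatment then 72 h with doxorubicin before readout; 0% = doxorubicin-only wells and 100% = vehicle-treated cells without doxorubicin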
Phagocyt inh = blocks phagocytosis by macrophages; inhibition, % at 5 µM; actives 0.07% (n = 110,000); J774A.1 macrophage IgG-bead phagocytosis, imaging;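 active means inhibition above the mean of the plate negative controls plus 5 SD, cut at about 13% in these data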;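 further: phagocytic index as fraction of beads internalized from green versus red external bead signal; plate controls were DMSO negative control for no effect and cytochalasin-D positive control for full effect; some results beyond the cut were filed as inactive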
Yeast growth inh = chemicals that inhibit yeast BB579 growth in restrictive medium (lifespan-shortening candidates) | S. cerevisiae BB579 growth, OD615, 48 h | inhibition, % at 10 µM | actives 0.51% (n = 140,000) | AID 804;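 active means inhibition above a set limit, 3 SD over the mean compound inhibition, cut at about 44% in these data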; further: inactives centre near -24
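controls = amphotericin B 10 µg/mL, positive | assay system = DeaD yeast strain BB579 | schedule = 48 h compound exposure at 30 °C after 4 h preincubation | detection = OD615 turbidity measurement | medium = restrictive CSMM-D medium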
GALR2 blocker = blocks the human galanin receptor 2; O43603; actives 0.39% (n = 140,000); GALR2-expressing cells, antagonist mode; inhibition, % at 4 µM; in the data active means inhibition above about 27%;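 further: cells stimulated with galanin 1-16 at roughly its EC80; 0% = agonist challenge control and 100% = basal control without agonist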
Target sequence (O43603 whole entry, looked up): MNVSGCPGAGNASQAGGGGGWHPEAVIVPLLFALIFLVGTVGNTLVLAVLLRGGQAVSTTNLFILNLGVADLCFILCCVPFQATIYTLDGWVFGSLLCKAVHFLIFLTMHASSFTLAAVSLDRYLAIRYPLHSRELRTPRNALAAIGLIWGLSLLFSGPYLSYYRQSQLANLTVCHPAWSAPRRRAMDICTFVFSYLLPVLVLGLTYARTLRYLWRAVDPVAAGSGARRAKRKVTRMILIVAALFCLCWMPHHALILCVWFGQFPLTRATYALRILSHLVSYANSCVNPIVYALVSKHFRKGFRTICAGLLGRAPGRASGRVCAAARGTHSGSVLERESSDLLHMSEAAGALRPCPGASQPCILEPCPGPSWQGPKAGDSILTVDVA
Yeast life ext = extends the lifespan of yeast; S. cerevisiae growth with nicotinamide, OD615; deaD strain in restrictive glucose medium; inhibition of the nicotinamide effect, % at 10 µM; actives 0.68% (n = 130,000);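 active means inhibition above a set limit, placed 3 SD over the median of all compounds, cut at about 26% in these data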;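 further: 0% = nicotinamide-treated wells and 100% = cells grown without nicotinamide; some compounds called inactive have numbers as strong as hits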
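Measured by: optical density (absorbance) at 615 nm; System: modified budding yeast, DeaD strain; Medium: restrictive CSMM-D dextrose medium; Timing: 4 h preincubation then 48 h treatment at 30 °C.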
* hit, by the source's call; · = not tested or not shown; & = joins results of further samples.

Structure | Measles CPE | MRP-1 activ | Phagocyt inh | Yeast growth inh | GALR2 blocker | Yeast life ext
Cc1cc(NS(=O)(=O)c2ccc(N)cc2)no1 | 10.7 | 0.7 | · | -22.9 | 6.5 | 4.9
COc1ccc2c(c1OC)C(=O)OC2C1c2c(cc3c(c2OC)OCO3)CCN1C (configuration not stated) | 38.1&7.7 | -2.4&-1.7 | 0.3 | -45.6&-34.1 | 17.0&11.5 | 4.9&-6.8
CC(=O)Nc1cccc(NS(=O)(=O)Cc2ccc(Cl)cc2)c1 | 2.3 | -0.2 | -1.0 | -15.6 | -1.1 | -1.2
NS(=O)(=O)c1cc2c(cc1C(F)(F)F)NCNS2(=O)=O | 2.6 | -0.2 | · | -3.0 | 3.5 | 5.5
NC1=NC(c2cccc(O)c2)n2c(nc3ccccc32)N1 (configuration not stated) | 3.6 | -0.2 | 1.3 | -18.8 | 9.4 | -4.1
N=c1ccccn1CC(O)COc1ccccc1 (configuration not stated) | 6.3 | -1.8 | -0.8 | -16.7 | 4.6 | 4.4
COc1ccc2c(c1)c(CC(=O)O)c(C)n2C(=O)c1ccc(Cl)cc1 | 23.0 | -1.8 | · | -35.4 | -7.7 | 1.8
CN(C)CC/C=C1\c2ccccc2COc2ccccc21 | 2.6 | -2.1 | · | -29.1 | 5.8 | 4.5
O=C(NCc1ccc2c(c1)OCO2)c1ccc2c(c1)C(=O)N(Cc1cccnc1)C2=O | 2.0 | 0.1 | 0.6 | -38.2 | -0.1 | -2.2
O=C(Nc1ccccc1)c1ccccc1O | 4.4 | 2.4 | -1.0 | 18.3 | 8.4 | -20.3
COC(=O)c1ccc2c(c1)C(C)(C)C(/C=C/c1ccccc1O)=[N+]2C | 1.8 | -6.5 | · | -22.9 | 16.6 | -18.1
O=C(O)CCSCCC(=O)O | 18.4 | -0.6 | -2.3 | -13.2 | 6.7 | 0.0
C[N+](C)(C)CCCCCCCCCC[N+](C)(C)C | 6.0 | -0.9 | · | -10.5 | -16.4 | 11.6
O/N=C/c1ccc(OCc2ccccc2)c(Cl)c1 | 2.9 | -3.4 | -3.4 | -19.9 | -15.9 | -5.0
CCOC(=O)N1CCC(=C2c3ccc(Cl)cc3CCc3cccnc32)CC1 | 12.3 | -2.7 | · | -55.7 | 11.9 | 33.4*
CC1=CC(C)(C)Nc2ccccc21 | 8.4 | -1.4 | · | -16.5 | -16.2 | -9.0

Records listed so far printed as active in Yeast life ext.
canonical_smiles | Measles CPE | Phagocyt inh | Yeast growth inh | GALR2 blocker | Yeast life ext
CCOC(=O)N1CCC(=C2c3ccc(Cl)cc3CCc3cccnc32)CC1 | 12.3 | · | -55.7 | 11.9 | 33.4*

Continued.
Structure | Measles CPE | MRP-1 activ | Phagocyt inh | Yeast growth inh | GALR2 blocker | Yeast life ext
Cc1ccc2cc(-c3noc(C4CCCO4)n3)c(=O)[nH]c2c1 (configuration not stated) | 28.9 | 1.6 | -0.5 | -10.9 | -1.9 | -5.8
CN(C)CCOC(c1ccccc1)c1ccccc1 | 30.6 | -1.4 | · | -25.8 | 8.4 | 0.4
Cc1cc(C)cc(N(C(=O)CNC(=O)c2cccs2)C(C(=O)NC2CCCC2)c2cccnc2)c1 (configuration not stated) | 13.1 | -1.0 | · | -51.4 | 14.5 | -3.6
C[C@]12CC[C@@H]3c4ccc(O)cc4CC[C@H]3[C@@H]1CC[C@@H]2O | 20.7 | -2.7 | · | -19.6 | 7.7 | 7.0
COc1c2occc2cc2ccc(=O)oc12 | 10.2 | 0.1 | -0.2 | 12.6 | -5.0 | -14.7
CC(C)CC(=O)N1CCN(C(=O)CCC2CCCC2)CC1 | 9.5 | -0.3 | -0.6 | -73.5 | 9.8 | 1.2
CO[C@H]1C=CO[C@@]2(C)Oc3c(C)c(O)c4c(O)c(c(C=NN5CCN(C)CC5)c(O)c4c3C2=O)NC(=O)C(C)=CC=C[C@H](C)[C@H](O)[C@@H](C)[C@@H](O)[C@@H](C)[C@H](OC(C)=O)[C@@H]1C | 6.8 | -1.8 | · | 11.4 | -1.1 | 14.2
Cc1cc(C(=O)Nc2cccnc2)on1 | 21.7 | -1.9 | · | -23.5 | 6.8 | 19.1
CC1Cc2ccccc2N1C(=O)CN1C(=O)C(=O)N(Cc2ccccc2)C1=O (configuration not stated) | 41.0 | -0.6 | -0.6 | -50.3 | -0.4 | -3.1
O=C(c1cccs1)N1CCC(N2CCN(c3ccccc3)CC2)CC1 | 9.0 | -2.0 | 2.8 | -21.0 | 9.0 | 0.2
CC1(C)O[C@@H]2C[C@H]3[C@@H]4CCC5=CC(=O)C=C[C@]5(C)[C@@]4(F)[C@@H](O)C[C@]3(C)[C@]2(C(=O)CO)O1 | 4.7 | 7.2* | · | 19.9 | -7.3 | -2.6
Cc1cc(C)cc(CSc2nnc(C)c(=O)[nH]2)c1 | 6.8 | 0.2 | -0.3 | -50.4 | -7.7 | -3.3

3 entries from above in another layout.
SMILES: CC1Cc2ccccc2N1C(=O)CN1C(=O)C(=O)N(Cc2ccccc2)C1=O (configuration not stated)
  Measles CPE: 41.0
  MRP-1 activ: -0.6
  Phagocyt inh: -0.6
  Yeast growth inh: -50.3
  GALR2 blocker: -0.4
  Yeast life ext: -3.1
SMILES: CC1(C)O[C@@H]2C[C@H]3[C@@H]4CCC5=CC(=O)C=C[C@]5(C)[C@@]4(F)[C@@H](O)C[C@]3(C)[C@]2(C(=O)CO)O1
  Measles CPE: 4.7
  MRP-1 activ: 7.2*
  Phagocyt inh: ·
  Yeast growth inh: 19.9
  GALR2 blocker: -7.3
  Yeast life ext: -2.6
SMILES: Cc1cc(C)cc(CSc2nnc(C)c(=O)[nH]2)c1
  Measles CPE: 6.8
  MRP-1 activ: 0.2
  Phagocyt inh: -0.3
  Yeast growth inh: -50.4
  GALR2 blocker: -7.7
  Yeast life ext: -3.3

High-throughput results from PubChem BioAssay.

The list is partial; rates above refer to the full screens.
